NPYLR7 agonist – mosquito NPYLR7 agonism; AID 1259423; 270,000 tested, 0.15% active; HEK293T NPYLR7/Galpha15, GCaMP6s calcium fluorescence; activation, % at 10 µM; in the data active = activation above about 40%;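 also: 0% = vehicle and 100% = reference agonist at the receptor; some compounds past the cut are filed as inactive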
NPYLR7 agonist max-min – also measured in NPYLR7 agonist; calls as there; activation, %; measured here: Max-Min RFU normalised activation; some inactives read as strong as hits;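 span of the calcium signal over five minutes; 0% = vehicle and 100% = native peptide agonist; compound fluorescence can raise it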
* hit, by the source's call; & = joins results of further samples. Not all compounds are listed, so the mix of outcomes need not match the whole.

structure	NPYLR7 agonist	NPYLR7 agonist max-min
O=C(NCc1ccc(Cl)s1)C1CCN(S(=O)(=O)c2cccnc2)CC1	-0.7	14.3
COC(=O)c1cc(Oc2ncnc3scc(-c4ccccc4)c23)cc(C(=O)OC)c1	5.0	4.1
O=C(CSc1nnc(SCC(=O)c2cccs2)s1)c1cccs1	3.3	7.3
CCCCc1ccc(C(=O)N(Cc2cccc(OS(=O)(=O)c3cccc(C(F)(F)F)c3)c2)Cc2ccco2)cc1	13.4	9.8
Cc1ccn2cc(C(=O)N3CCC(NC(=O)C4CCCCC4)CC3)nc2c1	0.7	0.3
O=C(NC(c1ccccc1)c1ccc(Br)cc1)c1ccco1 (stereo not drawn)	6.0	1.8
Fc1cccc(-n2cc(CN3CCC(OCc4cccnc4)CC3)cn2)c1	1.7	-4.4
COc1cccc(CCNC(=O)CCC(=O)N2CCN(c3ccccn3)CC2)c1	-7.8	-14.4
CCC1=NOC(C(=O)NCCn2c(C)cc(C)nc2=O)C1 (stereo not drawn)	24.9	13.1
CCc1nc2n(n1)C(=O)C(C(c1cccc(OC)c1)N1CCCC1)S2 (stereo not drawn)	-1.6	2.7
Cc1nn(C2CCS(=O)(=O)C2)c2nc(-c3ccc(F)cc3)cc(C(=O)N(C)C3CCN(C)CC3)c12 (stereo not drawn)	3.3	9.2
CCc1[nH]c2c(CNC(=O)CCN(C)S(C)(=O)=O)cc(F)cc2c1C	6.0	1.2
O=C(Nc1ccc(Nc2ccc(-n3cccn3)nn2)cc1)c1ccc2c(c1)OCO2	-4.5	-8.3
COc1cccc(-c2cc(C(=O)Nc3ccc(F)cc3)n3nc(-c4ccccc4)cc3n2)c1	11.7	11.7
O=C(C=Cc1ccccc1)N1CCN(Cc2nc3ccccc3c(=O)[nH]2)CC1	0.9	2.9
N[C@@H]1CC[C@@H](NS(=O)(=O)c2cc(Cl)c(Cl)s2)C1	4.6	-0.1
COc1cc(/C=N\n2cnnc2)c(Br)cc1OCc1ccccc1	-4.5	-10.5
CCN1CCC(C(=O)NC(c2ccc(OC)cc2)c2cccs2)CC1 (stereo not drawn)	15.1	2.0
CCN1CCc2c(sc(NC(C)=O)c2-c2nc3ccccc3s2)C1	5.2	3.8
CCCC(=O)Nc1cccc(C(=O)NC2CCCN(Cc3cccc(O)c3)C2)c1 (stereo not drawn)	-0.1	-2.3

Sorted by length of the SMILES (rising): some entries from above
structure	NPYLR7 agonist	NPYLR7 agonist max-min
CCN1CCC(C(=O)NC(c2ccc(OC)cc2)c2cccs2)CC1 (stereo not drawn)	15.1	2.0
CCc1[nH]c2c(CNC(=O)CCN(C)S(C)(=O)=O)cc(F)cc2c1C	6.0	1.2
O=C(Nc1ccc(Nc2ccc(-n3cccn3)nn2)cc1)c1ccc2c(c1)OCO2	-4.5	-8.3

(next part)
structure	NPYLR7 agonist	NPYLR7 agonist max-min
COc1ccc(-c2cc3c(SCC(=O)NC4CCCC4)nccn3n2)cc1	-2.8	-5.9
O=c1cc(C(F)(F)F)c2ccc(OS(=O)(=O)c3ccc(F)c(F)c3)cc2o1	-14.4	-23.0
Cc1ncsc1CCC(=O)N1CCC(CCC(=O)Nc2ccc3c(c2)OCCO3)CC1	6.5	6.0
CN1C(=O)/C(=C/c2ccccc2)SC1=Nc1ccccc1	-9.7	-6.7
COC(=O)C1CCCN1CCn1nc(C)cc1C (stereo not drawn)	-0.7	-2.5
CSc1nnc2n1CCN2c1ccccc1	-1.2	-2.3
CN(C)CCNC(=O)C[C@@H]1O[C@H](Cn2cc(CN(C)Cc3ccccc3)nn2)[C@@H](O)[C@H]1O	-8.0	-16.8
CCCCCCCCCCC[C@@H](C[C@H]1OC(=O)[C@H]1CCCCCC)OC(=O)[C@@H](CC(C)C)NC=O	-10.4	-13.3
CCNC(=S)NCC1c2cc(OC)c(OC)cc2CCN1Cc1cccc(F)c1 (stereo not drawn)	-4.8	7.0
COCCN(Cc1nc2scc(-c3cccc(OC)c3)c2c(=O)[nH]1)CC(O)COCc1ccco1 (stereo not drawn)	-1.8	5.8
N#Cc1c(F)cccc1NCC1(c2ccc3c(c2)OCO3)CCOCC1	14.8	11.4
Cn1c(COc2ccccc2Cc2ccccc2)cc(=O)n(C)c1=O	3.1	1.5
Cc1cc(Nc2ccc3c(n2)C(=O)N(CC(=O)NCCN2CCOCC2)C3)n(C)n1	3.8	2.0
COc1cccc(-c2cnc3c(NC=O)cc(-c4cccc(NC(C)=O)c4)cn23)c1	-5.7	-11.7
CCOC1OC2C(CO)OC(n3cnc4c(N)ncnc43)C2O1 (stereo not drawn)	2.8	-0.6
CCc1ccc(CN2CCC3(CCCN(Cc4ccccc4F)C3=O)C2)o1 (stereo not drawn)	0.0	6.1
Cc1ccc(Cl)c(OC2CC3CCC(C2)N3C(=O)c2ccc(CSc3nncs3)cc2)c1 (stereo not drawn)	11.7	5.7
Cc1ccc(Oc2cnn(-c3ccc(Cl)c(Cl)c3)c(=O)c2Nc2ccc(C(=O)N3CCOCC3)cc2)cc1	13.0	17.7
CCCCc1ccc(N2CCn3c2nc2c3c(=O)[nH]c(=O)n2C)cc1	-5.8	-9.6
CCN(CC)S(=O)(=O)c1ccc(Cl)c(C(=O)Nc2ccc(F)cc2)c1	16.4	5.0
COCc1ccc(C(=O)N2CCCC(N(C)CCc3ccc(OC)c(OC)c3)C2)s1 (stereo not drawn)	7.2&0.8	5.3&-1.3
CCCCCc1ccc(C(=O)N(CC(=O)N2CCc3sccc3C2c2ccccc2C)C2CC2)cc1 (stereo not drawn)	12.5	20.3
COCc1noc(-c2ccc(N3CCC4(CC3)OCCO4)nc2)n1	4.8	0.3
Cc1ccccc1-n1nc(SCC(=O)O)sc1=S	6.1	4.6
CCc1ccc(C(=O)N2CCc3nc(-c4cccc(F)c4)[nH]c(=O)c3C2)cc1	13.9	16.4
Cc1cc(C(=O)NCCn2ncc3c(N4CCCCC4)ncnc32)no1	1.7	0.4
CC(C)N1C(=O)C2C(c3ccc([N+](=O)[O-])cc3)NN(Cc3ccccc3)C2C1=O (stereo not drawn)	10.3	10.8
CC(=NOCC(=O)O)c1cccs1	3.2	10.7
CCCn1c(=O)n(C)c(=O)c2nc3c(cc21)c(=O)n(C)c(=O)n3CCC	2.4	-6.0
O=C(Nc1ccc(Oc2ccccc2C(F)(F)F)c(F)c1)C1COCCO1 (stereo not drawn)	0.8	2.0
CNC(=S)N1CCN(c2ncc(C(F)(F)F)cc2Cl)CC1	14.5	11.5
CN1CC2(CCN(C(=O)c3cc4c(C(F)(F)F)nn(C)c4s3)C2)OC1=O (stereo not drawn)	6.0	4.1
O=C1N(Cc2cccnc2)C(=O)C2(CCN(Cc3ccc4c(c3)CCO4)CC2)N1CCc1ccccc1	17.7	3.9
CN(C)C(=O)N1CCC(C(=O)NC2CCCC[C@H]2NC(=O)c2ccccc2)CC1 (stereo partly drawn)	-2.5	-3.6
COC(=O)[C@@H]1CCCN1C(=O)Cc1ccc(N2CCC(NCc3ccsc3)CC2)cc1	-0.6	-4.5
COc1cccc(-c2ccc(SCC(=O)c3ccccc3)nn2)c1	2.1	0.4
CN(Cc1cccc2ncccc12)Cc1cnn2cccnc12	4.5	0.4
Cc1ccc(C)c2[nH]c(=O)c(CCNC(=S)NC3CCCCC3)cc12	6.1	4.1
CSCC(C)N(C)C(=O)c1cccc(-c2n[nH]c(C)n2)c1 (stereo not drawn)	2.9&-0.4	1.7&-1.8
NC(=O)Cn1cc(Br)c(-c2ccc(Cl)cc2)n1	5.0	1.0
Fc1cccc(-n2c(N3CCOCC3)n[nH]c2=S)c1	1.8&0.5	1.1&-0.9
Cc1ccc(CN2CCNC(=O)C2CC(=O)NC2Cc3ccccc3C2)cc1 (stereo not drawn)	3.4	1.1
CC(c1cccs1)N(C)C(=O)c1ccc(N2CC(=O)NC2=O)cc1 (stereo not drawn)	11.6	8.4
CC(C)S(=O)(=O)N(C)Cc1cccc(N2CCN(C(=O)c3c(Cl)cccc3Cl)CC2)c1F	5.0	11.1
CCN(Cc1nc2cc(OC)c(OC)cc2c(=O)[nH]1)C(=O)Cc1c(F)cccc1Cl	3.2	1.9
CC(C)N(CC(=O)Nc1cc(-c2ccccc2)nn1-c1ccc(Cl)c(Cl)c1)C(=O)CCc1ccccc1	-0.6	5.1
CC(C)C1CN(C(=O)c2ccc(N3CCCC3=O)cc2)CCCN1CC1CC1 (stereo not drawn)	-0.4	-12.8
Clc1ccc(Oc2cc(N3CCCCC3)ncn2)cc1	-4.9	2.2
CCCCN(CC(=O)Nc1cc(-c2ccccc2)nn1-c1ccc(OC)cc1)C(=O)C1CC1c1ccccc1 (stereo not drawn)	-9.0	-0.6
Fc1ccc(Cl)cc1-c1nc(Nc2ccncc2)c2nccnc2n1	-9.5	-15.1

The list goes on:
structure	NPYLR7 agonist	NPYLR7 agonist max-min
COc1ccc(C(=O)NC2CCCN(Cc3ccccn3)C2)c(OC)c1OC (stereo not drawn)	7.0	1.1
Cc1ccccc1-c1noc(CCCC(=O)NCc2ccc(Cl)cc2)n1	2.1	-0.7
O=C(NCc1ccccn1)C(C1CCCC1)N1CCN(C(=O)c2ccc3c(c2)OCO3)CC1 (stereo not drawn)	-7.8	0.4
O=C(c1cnn(Cc2ccccc2)c1)N1C[C@H]2CC=CC[C@H]2C1	5.6	2.0
Cc1c(C(=O)O)c(C2CC2)nn1-c1ccccc1	4.2	14.8
CCN(CCN(C)C)CC(C)CCC=C(C)C (stereo not drawn)	-10.3	-18.4
CCCCc1ncc(-c2nccn2Cc2ccoc2)[nH]1	14.2	6.5
NC(=O)c1ccsc1NC(=O)CN1CCN(C(=O)c2cccs2)CC1	1.0	4.3
Fc1ccccc1CN1CCCC2(CCN(C3CCN(CCc4ccccc4)CC3)C2)C1 (stereo not drawn)	17.0	7.0
Cc1ccccc1-c1cccc([C@@H]2C[C@H]3CN(Cc4cccnc4)C(=O)[C@]34CCCN24)c1	4.1	-1.8
O=C(C1CC2(CCNCC2)CN1)N1CCN(c2nc3ccccc3o2)CC1 (stereo not drawn)	15.4	5.4
COCCCN(CC(=O)N1CCc2sccc2C1COc1ccccc1OC)C(=O)c1ccco1 (stereo not drawn)	-2.5	2.8
COc1ccc(NC(=O)C(C)Oc2ccc3c(c2)OCCO3)cc1OC (stereo not drawn)	4.0	-1.1
CSc1ccc(C(c2c(C)[nH][nH]c2=O)c2c(C)[nH][nH]c2=O)cc1	-1.3	-4.3
c1ccc(-c2csc3nc(-c4cccnc4)nc(Oc4ccc(-c5nnco5)cc4)c23)cc1	1.0	7.1
COC(C)CCOC(=O)c1oc2c(c1C)C(=O)CCC2 (stereo not drawn)	1.1	-0.6
N#CC1C(=N)Oc2c(sc3ccccc23)C1c1ccccc1 (stereo not drawn)	6.6&4.0	9.0&0.3
Cc1cc(C)n(Cc2ccc(N)cc2)n1	12.0	11.1

Structures listed so far containing fluorine (19):
structure	NPYLR7 agonist	NPYLR7 agonist max-min
CCCCc1ccc(C(=O)N(Cc2cccc(OS(=O)(=O)c3cccc(C(F)(F)F)c3)c2)Cc2ccco2)cc1	13.4	9.8
Fc1cccc(-n2cc(CN3CCC(OCc4cccnc4)CC3)cn2)c1	1.7	-4.4
Cc1nn(C2CCS(=O)(=O)C2)c2nc(-c3ccc(F)cc3)cc(C(=O)N(C)C3CCN(C)CC3)c12 (stereo not drawn)	3.3	9.2
CCc1[nH]c2c(CNC(=O)CCN(C)S(C)(=O)=O)cc(F)cc2c1C	6.0	1.2
COc1cccc(-c2cc(C(=O)Nc3ccc(F)cc3)n3nc(-c4ccccc4)cc3n2)c1	11.7	11.7
O=c1cc(C(F)(F)F)c2ccc(OS(=O)(=O)c3ccc(F)c(F)c3)cc2o1	-14.4	-23.0
CCNC(=S)NCC1c2cc(OC)c(OC)cc2CCN1Cc1cccc(F)c1 (stereo not drawn)	-4.8	7.0
N#Cc1c(F)cccc1NCC1(c2ccc3c(c2)OCO3)CCOCC1	14.8	11.4
CCc1ccc(CN2CCC3(CCCN(Cc4ccccc4F)C3=O)C2)o1 (stereo not drawn)	0.0	6.1
CCN(CC)S(=O)(=O)c1ccc(Cl)c(C(=O)Nc2ccc(F)cc2)c1	16.4	5.0
CCc1ccc(C(=O)N2CCc3nc(-c4cccc(F)c4)[nH]c(=O)c3C2)cc1	13.9	16.4
O=C(Nc1ccc(Oc2ccccc2C(F)(F)F)c(F)c1)C1COCCO1 (stereo not drawn)	0.8	2.0
CNC(=S)N1CCN(c2ncc(C(F)(F)F)cc2Cl)CC1	14.5	11.5
CN1CC2(CCN(C(=O)c3cc4c(C(F)(F)F)nn(C)c4s3)C2)OC1=O (stereo not drawn)	6.0	4.1
Fc1cccc(-n2c(N3CCOCC3)n[nH]c2=S)c1	1.8&0.5	1.1&-0.9
CC(C)S(=O)(=O)N(C)Cc1cccc(N2CCN(C(=O)c3c(Cl)cccc3Cl)CC2)c1F	5.0	11.1
CCN(Cc1nc2cc(OC)c(OC)cc2c(=O)[nH]1)C(=O)Cc1c(F)cccc1Cl	3.2	1.9
Fc1ccc(Cl)cc1-c1nc(Nc2ccncc2)c2nccnc2n1	-9.5	-15.1
Fc1ccccc1CN1CCCC2(CCN(C3CCN(CCc4ccccc4)CC3)C2)C1 (stereo not drawn)	17.0	7.0
